Rce1 inhib = yeast Ras-converting enzyme inhibition; 290,000 tested, 0.27% active; AID 2563; calls only; yeast membranes, quenched prenylated peptide cleavage fluorescence; Q03530;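 active = fall in fluorescence gain of 50% or more versus controls, with final raw signal at or below 3038400; inconclusive = same 50% fall but final raw signal above 3038400; inactive = fall in fluorescence gain under 50%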;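 also: plate controls were neutral control wells for no effect and wells lacking membranes for full effect; tested at 10 µM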
Target sequence (Q03530 whole entry, looked up): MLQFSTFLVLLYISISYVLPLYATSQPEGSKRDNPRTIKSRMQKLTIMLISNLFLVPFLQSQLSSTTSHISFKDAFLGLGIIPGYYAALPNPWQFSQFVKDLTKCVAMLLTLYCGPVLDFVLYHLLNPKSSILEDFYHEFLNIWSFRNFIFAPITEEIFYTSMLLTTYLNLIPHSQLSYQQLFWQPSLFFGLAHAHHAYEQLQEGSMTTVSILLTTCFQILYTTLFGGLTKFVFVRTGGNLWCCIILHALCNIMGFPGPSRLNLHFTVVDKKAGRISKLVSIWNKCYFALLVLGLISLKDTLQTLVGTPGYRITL
MT1-MMP act inh = inhibitors of human MT1-MMP activation. 360,000 tested, 0.061% active. HT1080 RFP-PRO-GFP cells, GFP/RFP ratio fluorescence, overnight; percent of plate control window, DMSO zero. AID 651647. GFP/RFP ratio change, % at 20 µM;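 active = GFP/RFP ratio change of at least 30% with cell ATP level not reduced by more than half and red fluorescence within 50% of control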; also: strong numbers were not always called active
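Assay system: HT1080 RFP-PRO-GFP cells. Benchmarks: DMSO vehicle wells and RFP-L50D-GFP reporter cell wells. Times: overnight cell settling, then overnight compound exposure, 37 °C, 5% CO2. Compound: 20 µM single dose, 1% DMSO. Read-out basis: GFP/RFP fluorescence ratio.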
PABP FP inh = PABP-poly(A) binding inhibition; P11940; PABP-poly(A) RNA binding, fluorescence polarization; inhibition, % at 35 µM; 290,000 tested, 1% active;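 active = 50% or more with normal probe brightness, or confirmed in later tests; inconclusive = above 50% with abnormal brightness, or retests that disagree; inactive = below 50% or failed in later tests; about a fifth of its hits are not listed in these tables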;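 also: calls also rest on retests at 20 µM and on dose response follow-up; controls were probe without protein and protein plus probe with vehicle; some compounds called inactive have numbers as strong as hits; many hits fall short of the cut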
Target sequence (P11940 whole entry, looked up): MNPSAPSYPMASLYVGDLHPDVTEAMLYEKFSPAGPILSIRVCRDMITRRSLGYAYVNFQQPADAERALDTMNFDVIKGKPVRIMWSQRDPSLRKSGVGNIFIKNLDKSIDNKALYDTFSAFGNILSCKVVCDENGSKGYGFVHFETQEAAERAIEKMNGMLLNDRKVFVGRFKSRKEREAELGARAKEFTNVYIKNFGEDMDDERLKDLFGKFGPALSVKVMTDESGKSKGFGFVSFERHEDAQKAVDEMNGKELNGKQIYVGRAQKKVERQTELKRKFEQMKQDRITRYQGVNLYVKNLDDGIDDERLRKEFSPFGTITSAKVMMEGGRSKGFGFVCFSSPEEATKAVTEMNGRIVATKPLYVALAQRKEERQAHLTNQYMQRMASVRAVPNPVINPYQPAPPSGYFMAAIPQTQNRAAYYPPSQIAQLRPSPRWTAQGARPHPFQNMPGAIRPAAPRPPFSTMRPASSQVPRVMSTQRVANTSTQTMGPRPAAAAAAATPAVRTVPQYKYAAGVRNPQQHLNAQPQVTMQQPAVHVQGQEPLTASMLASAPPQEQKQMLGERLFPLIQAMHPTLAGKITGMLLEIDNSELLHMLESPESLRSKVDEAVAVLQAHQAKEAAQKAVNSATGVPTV
CSC inhib = cancer stem cell inhibition; 300,000 tested, 1.1% active; AID 2717; inhibition, % at 7.5 µM; cancer stem cell-like cells viability, luminescence;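 active = mean at 75% or more and at least half the replicates too; inconclusive = mean and replicates disagree; tested in HMLE shEcad cells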;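 also: 0% = median of negative and 100% = median of positive control wells; the first replicate is given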
eIF4H FP inh = inhibitors of RNA binding by human eIF4H. Q15056. eIF4H fluorescence polarization binding assay. inhibition, % at 35 µM. 290,000 tested, 0.94% active. AID 2012;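 active = 50% or more with normal probe brightness, or confirmed in later tests; inconclusive = above 50% with abnormal brightness, or retests that disagree; inactive = below 50% or failed in later tests; about a fifth of its hits are not listed in these tables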;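 also: calls also rest on retests at 20 µM and on dose response follow-up; 0% = protein and probe with vehicle and 100% = probe without protein; strong numbers were not always called active; many hits fall short of the cut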
HIV Env fusion = HIV envelope-mediated fusion inhibition; inhibition, % at 12.3 µM; HeLa-JRFL Env/CEM21 cell fusion, luciferase; 360,000 tested, 1.1% active;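 active = mean replicate inhibition score of at least 50 and every replicate individually at or above 50; inconclusive = only one of the two criteria met; inactive = mean below 50 and not all replicates reaching 50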;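 also: 0% = plate neutral controls and 100% = maraviroc near 300 nM; one replicate is shown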
Yeast UUG start = modulators of start codon recognition fidelity in yeast; 350,000 tested, 0.13% active; S. cerevisiae UUG-firefly luciferase reporter, luminescence/redox ratio; activity score, % at 18.7 µM;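 active = replicate mean at a twofold rise or more, about +100% in these data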;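 also: firefly luciferase made from a UUG start codon reports start codon fidelity; reporter light over untreated wells divided by growth signal over untreated wells; some hits fall short of that in this replicate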
MT1-MMP act inh RFP = further read-out of MT1-MMP act inh, marked with its call; RFP signal change, %; measured here: RFP expression control read;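 0 = vehicle wells; hits needed this value within 50% of zero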
* = called active by the depositor; i = inactive; ? = inconclusive; nt = not tested or not shown; & = joins results of further samples; [ ] = dose if it differs, or a comment. These rows are one share of the data; the hit share may differ from the screen's.

SMILES	Rce1 inhib	MT1-MMP act inh	MT1-MMP act inh RFP	PABP FP inh	CSC inhib	eIF4H FP inh	HIV Env fusion	Yeast UUG start
Cc1nn(C)c(C)c1C1Nc2ccccc2C(=O)N1O (stereo unspecified)	i	1.0	-0.5	1.0	-6.0	-0.5	-1.4	-8.8
O=C(CSC1=Nc2ccccc2C2CC=NN12)NCc1ccco1 (stereo unspecified)	nt	-6.2	-9.9	nt	29.0	nt	36.7	-9.1
O=C(Cc1ccccc1)c1c[nH]c(C(=O)NCCCN2CCOCC2)c1	i	-1.4	3.6	?	-15.7	17.2	16.9	-9.6
COC(=O)[C@H](Cc1ccccc1)NC(=O)Cn1cnc2c(OCc3ccccc3)ncnc21	nt	1.2	1.1	nt	-8.3	nt	nt	-10.1
CCSc1nnc(Nc2ccc(C)cc2)s1	i	3.1	-2.2	1.6	-5.2	6.2	-61.0	-21.4
COc1cc2nc(=S)n3[nH]c(CCn4nc(C)cc4C)nc3c2cc1OC	i	6.0	0.8	5.8	-1.7	-6.8	-36.9	-26.6
Cc1ccsc1/C=C1/SC(N2CC(C)OC(C)C2)=NC1=O (stereo unspecified)	i	5.4	-6.6	6.5	-9.7	-2.4	-17.7	nt
CCn1c(N2CCN(CC(=O)c3c[nH]c4ccccc34)CC2)nc2c1c(=O)[nH]c(=O)n2C	i	2.1	-1.2	25.6	-2.8	10.3	-21.7	3.6
COc1cccc(C(=O)N2CCN(C(=O)c3cccc(F)c3)CC2)c1	i	-5.1	-2.1	3.5	9.3	2.7	nt	-7.8
Cc1ccc(-c2nn(C)c(=O)c3ccccc23)cc1CNC(=O)Cn1nc(-c2ccccc2)c2ccccc2c1=O	i	nt	nt	-1.5	nt	3.2	nt	nt
COc1cc(Nc2nc(-c3ccccc3)c3cc(C)ccc3n2)cc(OC)c1OC	i	-1.2	-2.0	6.3	?	-7.2	-16.0	-7.8
CN(CC(=O)Nc1c(Cl)cccc1Cl)C(=O)c1ccccc1Cc1ccccc1	i	-3.6	-5.9	nt	-11.1	nt	4.0	3.1
C[C@@H]1CN([C@@H](C)CO)C(=O)CCCn2nncc2CO[C@@H]1CN(C)C(=O)Nc1cccc(Oc2ccccn2)c1	nt	-2.1	1.5	nt	nt	nt	-0.7[16.7 µM]	-1.7&-5.5
O=C1CC2(CCN(C(=O)C3CC(=O)N(c4ccc(F)cc4)C3)CC2)Oc2ccccc21 (stereo unspecified)	i	4.7	-13.4	nt	-10.1	nt	0.6	-10.1
CCNC(=O)C(CC(C)C)NC(=O)C(CO)NC(=O)C1CCC(=O)N1 (stereo unspecified)	i	-2.0	-1.2	0.8	-20.3	-6.7	19.6	-6.4
CCOC(=O)C1=C(COC(=O)CCOc2ccccc2C)NC(=O)NC1C (stereo unspecified)	i	1.3	1.5	nt	-4.1	nt	-0.1	-6.5
CCCCOc1c(Cl)cc(C(=O)N2CCN(CC(=O)N3CCCC3)CC2)cc1OCC	nt	0.5	0.6	nt	nt	nt	-6.7	-17.8
CC(=O)C1=C(O)C(=O)N(Cc2ccccc2)C1c1ccc([N+](=O)[O-])cc1 (stereo unspecified)	i	1.4	1.9	10.3	-22.7	3.6	9.5	nt
COc1ccccc1CNC(=O)CN1C(=O)NC(Cc2ccccc2)(c2ccccc2)C1=O (stereo unspecified)	nt	-1.4	-0.8	nt	-6.9	nt	-10.1	2.9
Cc1cc(Cl)c(S(=O)(=O)NC(C(=O)O)c2ccccc2)cc1OCC(N)=O (stereo unspecified)	i	1.9	6.1	6.0	-8.6	-3.8	-40.8	-19.2
COc1ccc(/C(=C/c2ccc(OC(F)F)c(OC)c2)C(=O)O)cc1OC	i	2.5	1.9	-13.1	1.6	-18.8	-7.7	nt
Nc1nc(-c2cccs2)cs1	i	1.7	2.4	9.5	nt	1.0	nt	-16.4
CC(=O)c1ccccc1C(=O)N1CCC(n2nccc2NC(=O)C2CC2)CC1	i	-5.1	1.2	-0.3	-13.1	-9.3	6.8	-23.8
COc1cccc(CC(NC(C)=O)C(=O)NC2CCN(C(=O)c3ccc(Cl)cc3)CC2)c1OC (stereo unspecified)	i	-1.3	-3.4	4.6	-1.8	0.2	-6.3	-8.5
CN(c1ccccc1)S(=O)(=O)c1ccc(Cl)c(C(=O)Nc2ccccc2N2CCOCC2)c1	nt	3.1	-6.9	nt	nt	nt	21.8	-11.1
CC(=O)N(C)c1ccc(NS(=O)(=O)c2cccc3nsnc23)cc1	i	0.4	1.3	3.1	-12.7	-5.4	-27.0	1.8
Cc1ccc(C)n1-c1cccc(S(=O)(=O)N2CCOCC2)c1	i	-0.5	1.7	0.5	0.9	-4.5	-21.9	nt
O=C(NCc1ccco1)c1ccc(COc2cccc3ccccc23)cc1	i	-2.5	-8.0	-1.4	30.4	-12.9	7.5	1.7
COc1ccc2oc(C(=O)OCC(=O)NCc3ccccc3OC)c(C)c2c1	i	-1.8	3.1	nt	-19.6	nt	-1.9	-3.4
CCCc1cc(=O)oc2cc(OC3CCCCC3=O)ccc12 (stereo unspecified)	i	-1.3	-1.7	90.3*	2.0	88.6*	9.7	1.6
Cc1ccnc2nc(C(=O)OCC(=O)c3ccccc3)nn12	nt	-0.9	6.5	nt	-10.7	nt	9.8	-7.1
COc1ccc(/C=N/NC(=O)c2ccoc2C)cc1COc1c(C)cccc1C	i	-11.5	-11.5	-3.6	69.7	-0.2	76.3*	-13.9
O=C(Nc1ccccc1)/C(=C/c1ccc2c(c1)OCO2)NC(=O)c1ccco1	i	-2.1	-0.9	10.9	12.5	-4.4	nt	nt
Oc1ccc(C[C@H]2CNC(=S)N2CC2CCCN2C[C@H](Cc2ccccc2)N2C[C@H](Cc3ccc(O)cc3)N(CC3CCCCC3)C2=S)cc1 (stereo partly specified)	nt	-3.6	-12.4	nt	nt	nt	-47.3	-21.6
COc1cccc(CN(C)CCCn2cnc3c(SC)ncnc32)c1	nt	3.7	10.1	nt	nt	nt	-12.8	-16.2
Cc1cc(-c2nnc(SCc3ccccn3)o2)no1	i	4.3	6.1	-6.4	-12.2	-15.7	-34.4	-13.8
O=c1cc(N2CCc3ccccc32)[nH]c(=O)n1-c1ccc(Br)cc1	i	1.3	6.5	-20.8	nt	32.8	11.6	-10.3
CCC(CO)n1c(SCc2cc([N+](=O)[O-])cc3c2OCOC3)nc2ccccc2c1=O (stereo unspecified)	i	4.3	-1.5	12.1	-0.7	0.3	nt	nt
O=C(c1ccc(Cl)c(S(=O)(=O)N2CCCCCC2)c1)N1CCOCC1	i	1.3	3.9	1.3	-1.5	-12.2	-0.4	-9.1
Cc1cc(C(F)(F)F)nc(SCC(=O)NC2CCCCC2)n1	i	1.5	2.7	-11.7	4.0	-3.3	9.0	nt
COc1cccc(OC)c1C(=O)OCC(=O)N1CCC(Cc2ccccc2)CC1	nt	-1.2	1.0	nt	-1.6	nt	5.3	-17.5
O=C(Nc1cccs1)Nc1nnc([C@@H]2C[C@H](O)[C@@H](CO)O2)s1	nt	-0.3	4.4	nt	nt	nt	3.4	-24.0
COc1cc(C)nc(OCCNS(=O)(=O)c2cc(C)ccc2C)n1	i	4.8	2.5	-1.4	-12.3	-1.9	nt	-6.6
Cn1cc(/C=C(\NC(=O)c2ccccc2)C(=O)NCCN2CCOCC2)c2ccccc21	i	-15.8	-1.9	-4.4	-10.4	-1.3	0.6	-1.7
CCC(=O)Nc1ccc(C2C(=O)c3ccccc3C2=O)cc1	i	-1.3	1.4	6.8	3.5	-7.0	-22.3	7.0
CCN(CC)CCn1c2c(c(SCC(=O)NCc3ccccc3)nc1=O)CCCC2	i	-1.8	3.4	nt	-0.7	nt	2.6	-9.9
O=C(CN1CCN(C(=O)c2ccccc2)CC1)Nc1ccc(Br)cn1	i	-3.6	-3.9	3.2	-3.2	3.7	nt	-3.7
NS(=O)(=O)c1ccc(NC(=O)COC(=O)CCC2CCCC2)cc1	i	2.2	5.4	-12.3	2.1	-4.9	6.1	-11.3
O=C(c1cc2cc(Cl)ccc2[nH]1)N1CCN(c2ccccc2F)CC1	i	3.6	0.0	-2.3	-18.9	-6.0	-9.0	0.4
O=C(NCCCN1CCOCC1)C1(c2ccccc2)CCCC1	i	0.8	3.9	-4.2	nt	-11.3	nt	-5.3
CN(C1=NS(=O)(=O)c2ccccc21)c1ccc(OC(=O)c2ccccc2)cc1	i	-4.3	-2.7	7.3	nt	-6.4	-4.4	-15.6
CC(C)c1cc(C(C)C)c(S(=O)(=O)NNC(=O)c2ccncc2)c(C(C)C)c1	i	-0.6	-2.3	-11.7	nt	-4.9	nt	-1.7
Cc1c(Cl)cccc1NC(=O)COC(=O)c1c2c(nc3ccccc13)CCN(Cc1ccccc1)C2	i	-13.0	-9.2	-0.1	26.1	40.4	16.1	nt
CC1CC(=O)Nc2ccccc2N1C(=O)Nc1ccc(F)cc1 (stereo unspecified)	i	0.9	5.4	-1.2	-6.0	-13.5	-4.8	-0.3
Cc1nn(CC(=O)OCC(=O)NCCc2ccc(S(N)(=O)=O)cc2)c(C)c1[N+](=O)[O-]	nt	-0.8	0.3	nt	nt	nt	-4.7	-6.6
CC(Sc1nnc(N)s1)C(=O)Nc1ccc2c(c1)OCO2 (stereo unspecified)	nt	-0.3	1.6	nt	nt	nt	-0.3	-7.1
O=Cc1ccc(OCc2cn3ccccc3n2)cc1	i	-1.3	1.0	11.6	nt	47.9	-6.1	-29.4
COc1ccc(C(C)(O)c2nc(-c3csc4ccccc34)cs2)cc1 (stereo unspecified)	nt	-6.3	-7.0	nt	nt	nt	4.1	-9.5
Oc1csc(Cc2nc(-c3ccc(-c4ccccc4)cc3)cs2)n1	i	-5.8	-1.0	-2.0	-2.5	4.8	14.5	-16.5
O=c1c2c(nc3nc(Cc4ccccc4)[nH]n13)CCC2	i	-0.2	1.5	4.5	-7.8	0.7	nt	-11.2
The list continues:
SMILES	Rce1 inhib	MT1-MMP act inh	MT1-MMP act inh RFP	PABP FP inh	CSC inhib	eIF4H FP inh	HIV Env fusion	Yeast UUG start
Cc1cccc(-c2cnc(C(O)c3ccc(-c4ccccc4)cc3)[nH]2)c1 (stereo unspecified)	nt	1.6	1.5	nt	nt	nt	-8.6	-21.4
CCOC(=O)N1CCN(C(=S)Nc2ccc(C)c(C)c2)CC1	i	2.8	2.1	-12.8	-14.3	-3.6	28.8	-21.7
CC1CCCN(CCCNC(=O)c2cn(C)c3ccc(S(=O)(=O)N(C)C4CCCCC4)cc3c2=O)C1 (stereo unspecified)	i	-4.7	-6.8	-5.9	1.5	-6.8	-1.2	-19.7
CCCOC(=O)c1c(N)sc(C(=O)OCC)c1C	i	nt	nt	1.0	4.9	-11.7	nt	nt

Reformatted: entries from further up
> CC(C)c1cc(C(C)C)c(S(=O)(=O)NNC(=O)c2ccncc2)c(C(C)C)c1
  Rce1 inhib: i
  MT1-MMP act inh: -0.6
  MT1-MMP act inh RFP: -2.3
  PABP FP inh: -11.7
  CSC inhib: nt
  eIF4H FP inh: -4.9
  HIV Env fusion: nt
  Yeast UUG start: -1.7
> O=C(NCc1ccco1)c1ccc(COc2cccc3ccccc23)cc1
  Rce1 inhib: i
  MT1-MMP act inh: -2.5
  MT1-MMP act inh RFP: -8.0
  PABP FP inh: -1.4
  CSC inhib: 30.4
  eIF4H FP inh: -12.9
  HIV Env fusion: 7.5
  Yeast UUG start: 1.7
> O=Cc1ccc(OCc2cn3ccccc3n2)cc1
  Rce1 inhib: i
  MT1-MMP act inh: -1.3
  MT1-MMP act inh RFP: 1.0
  PABP FP inh: 11.6
  CSC inhib: nt
  eIF4H FP inh: 47.9
  HIV Env fusion: -6.1
  Yeast UUG start: -29.4

Assay outcomes (PubChem BioAssay)
